CSC inhib: cancer stem cell viability inhibitors, primary screen, luminescence; cancer stem cell-like cells viability; inhibition, % at 7.5 µM; actives 1.1% (n = 300,000); AID 2717, 2010;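 active = mean at 75% or more and at least half the replicates too; inconclusive = mean and replicates disagree; tested in HMLE shEcad cells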;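 also: 0% = median of negative and 100% = median of positive control wells; the first replicate is given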
Rce1 inh: yeast Rce1p protease inhibitors, primary screen, biochemical, fluorescence, cell-free homogeneous | yeast membranes, quenched prenylated peptide cleavage fluorescence | calls only | CAAX prenyl protease 2 (Saccharomyces cerevisiae (strain ATCC 204508 / S288c)), Q03530 | actives 0.27% (n = 290,000);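 active = fall in fluorescence gain of 50% or more versus controls, with final raw signal at or below 3038400; inconclusive = same 50% fall but final raw signal above 3038400; inactive = fall in fluorescence gain under 50%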;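 also: plate controls were neutral control wells for no effect and wells lacking membranes for full effect; tested at 10 µM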
eIF4H inh: human eIF4H binding inhibitors, primary screen, translation initiation inhibitor project, biochemical, uHTS, fluorescence polarization | Eukaryotic translation initiation factor 4H (Homo sapiens), Q15056 | inhibition, % at 35 µM | eIF4H fluorescence polarization binding assay | actives 0.94% (n = 290,000);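 active = 50% or more with normal probe brightness, or confirmed in later tests; inconclusive = above 50% with abnormal brightness, or retests that disagree; inactive = below 50% or failed in later tests; about a fifth of its hits are not listed in these tables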;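 also: calls also rest on retests at 20 µM and on dose response follow-up; 0% = protein and probe with vehicle and 100% = probe without protein; strong numbers were not always called active; many hits fall short of the cut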
HIV Env fusion: inhibitors of HIV-1 Env-driven cell-cell fusion, primary screen, HeLa-JRFL effector, CEM21 target cells, luciferase; inhibition, % at 12.3 µM; actives 1.1% (n = 360,000);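 active = mean replicate inhibition score of at least 50 and every replicate individually at or above 50; inconclusive = only one of the two criteria met; inactive = mean below 50 and not all replicates reaching 50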;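 also: 0% = plate neutral controls and 100% = maraviroc near 300 nM; one replicate is shown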
PABP FP inh: PABP poly(A) RNA binding inhibitors, primary screen, biochemical, fluorescence polarization, uHTS | Polyadenylate-binding protein 1 (Homo sapiens), P11940 | inhibition, % at 35 µM | actives 1% (n = 290,000) | AID 2014, 2009;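 active = 50% or more with normal probe brightness, or confirmed in later tests; inconclusive = above 50% with abnormal brightness, or retests that disagree; inactive = below 50% or failed in later tests; about a fifth of its hits are not listed in these tables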;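 also: calls also rest on retests at 20 µM and on dose response follow-up; controls were probe without protein and protein plus probe with vehicle; some compounds called inactive have numbers as strong as hits; many hits fall short of the cut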
Target sequence (P11940 whole entry, looked up): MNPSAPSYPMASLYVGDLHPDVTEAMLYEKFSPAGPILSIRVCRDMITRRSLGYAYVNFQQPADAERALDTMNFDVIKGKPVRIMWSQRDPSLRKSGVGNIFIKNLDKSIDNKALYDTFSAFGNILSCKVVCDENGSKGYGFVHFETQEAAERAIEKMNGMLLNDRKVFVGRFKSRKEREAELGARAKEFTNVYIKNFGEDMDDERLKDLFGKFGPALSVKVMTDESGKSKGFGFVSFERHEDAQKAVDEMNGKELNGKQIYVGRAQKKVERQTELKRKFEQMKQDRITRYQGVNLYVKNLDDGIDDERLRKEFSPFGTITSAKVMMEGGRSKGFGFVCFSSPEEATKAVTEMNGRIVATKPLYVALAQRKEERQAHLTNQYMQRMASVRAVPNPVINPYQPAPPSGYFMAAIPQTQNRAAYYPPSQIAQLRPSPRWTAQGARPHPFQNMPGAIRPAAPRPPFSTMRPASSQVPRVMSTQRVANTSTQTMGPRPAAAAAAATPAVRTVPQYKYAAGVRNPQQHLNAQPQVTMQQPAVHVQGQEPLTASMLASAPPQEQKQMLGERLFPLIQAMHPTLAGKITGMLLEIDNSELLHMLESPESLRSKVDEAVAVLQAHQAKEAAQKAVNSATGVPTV
MT1-MMP act inh: blockers of MT1-MMP proenzyme processing, primary screen, HT1080 RFP-PRO-GFP cells, GFP/RFP fluorescence; GFP/RFP ratio fluorescence, overnight; percent of plate control window, DMSO zero; actives 0.061% (n = 360,000); AID 651647, 2012; Matrix metalloproteinase-14 (Homo sapiens), P50281; GFP/RFP ratio change, % at 20 µM;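 active = GFP/RFP ratio change of at least 30% with cell ATP level not reduced by more than half and red fluorescence within 50% of control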; also: strong numbers were not always called active
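Assay system: HT1080 RFP-PRO-GFP cells. Benchmarks: DMSO vehicle wells and RFP-L50D-GFP reporter cell wells. Times: overnight cell settling, then overnight compound exposure, 37 °C, 5% CO2. Compound: 20 µM single dose, 1% DMSO. Read-out basis: GFP/RFP fluorescence ratio.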
Yeast UUG start: modulators of yeast start codon fidelity, primary screen, whole organism, S. cerevisiae, single point, plate reader. actives 0.13% (n = 350,000). activity score, % at 18.7 µM. S. cerevisiae UUG-firefly luciferase reporter, luminescence/redox ratio;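 active = replicate mean at a twofold rise or more, about +100% in these data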;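 also: firefly luciferase made from a UUG start codon reports start codon fidelity; reporter light over untreated wells divided by growth signal over untreated wells; some hits fall short of that in this replicate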
eIF4H inh retest: recorded beside eIF4H inh, whose call it bears; inhibition, %; compound at 20 µM; confirmation average;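 mean of two retest wells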
PABP FP inh retest: second read-out of PABP FP inh, no call of its own (marks repeat the call); inhibition, %; compound at 20 µM; confirmation repeats;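 mean of two retest wells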
MT1-MMP act inh RFP: recorded beside MT1-MMP act inh, whose call it bears; RFP signal change, %; measured here: RFP expression control read;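 0 = vehicle wells; hits needed this value within 50% of zero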
Numbers without * were called inactive; i = inactive; ? = inconclusive; · = no result given.

SMILES	CSC inhib	Rce1 inh	eIF4H inh	HIV Env fusion	PABP FP inh	MT1-MMP act inh	MT1-MMP act inh RFP	Yeast UUG start	others
CC1CC(C)(C)NCc2ccccc21 (stereo unspecified)	-1	i	-2	·	8	0	0	-31
CCOC(=O)CNC(=O)CCc1nnc2ccc(N3CCC(C)CC3)nn12	-12	i	-8	-1	3	3	6	-18
COc1ccc(C(=O)NCc2nnc(SCC(=O)N3CCOCC3)o2)cc1OC	-3	i	-3	-3	5	-1	3	·
C[C@H]1COC(=O)[C@H](CC(=O)OC(C)(C)C)C/C=C\C[C@@H](CC(=O)N(CCO)Cc2ccccc2)C(=O)N1	-10	·	·	2	·	1	2	-2
CCOC(=O)C1CCN(C(=O)CCCn2nc(C)c3c(C)n(-c4ccc(C)cc4)nc3c2=O)CC1	-7	i	-8	7	5	6	-1	-10
CCN(CC)CCNC(=O)c1cc2cc(Br)ccc2s1	49	i	-1	-4	-4	4	3	·
CCOC(=O)C1CCN(c2cc(=O)n(-c3ccc(OC)cc3)c(=O)[nH]2)CC1	16	i	-9	-10	0	1	2	15
CN(C)S(=O)(=O)c1cccc(C(=O)N(Cc2ccc(F)cc2)Cc2ccco2)c1	-7	i	8	·	9	4	-8	9
CSc1cccc(NC(=O)C2CCCN(S(C)(=O)=O)C2)c1 (stereo unspecified)	·	·	·	-75	·	0	2	-8
CCCc1cc(=O)oc2cc(OC(C)C(=O)NC3CC(C)(C)NC(C)(C)C3)ccc12 (stereo unspecified)	-5	i	0	0	-1	0	5	-6
CC(C)CC(NC(=O)C1CCC(C)CC1)C(=O)NCCN1CCOCC1 (stereo unspecified)	0	i	-2	-4	0	1	5	-11
CCCn1c(C)cc(C(=O)COC(=O)c2ccc[nH]c2=O)c1C	-6	i	22	-4	0	8	7	-37
Cc1cc(NC(=O)c2ccc3c(c2)C(=O)N(CCC(C)C)C3=O)no1	-1	i	-6	·	-1	-5	-2	-1
NCCCn1c(C(=O)c2ccc(Cl)cc2)c2ccc([N+](=O)[O-])cc2[n+]1[O-]	1	i	·	·	·	-8	-2	-22
O=C(NNC(=O)C1C2CCCCC21)c1coc(=O)c(Br)c1 (stereo unspecified)	-7	i	16	-3	32	-3	7	-19
CS(=O)(=O)c1nc(-c2ccccc2)cc(-c2ccccc2)c1C#N	2	i	5	·	-2	-27	-21	-13
CC(NCC(O)COCc1cccs1)C1CC2CCC1C2 (stereo unspecified)	34	i	-2	-63	0	1	-1	-10
O=C(Nc1ccc(Cl)cc1)C1C2C=CC3(O2)C1C(=O)N(CCN1CCCCC1)C3C(=O)NC1CCCCC1 (stereo unspecified)	-14	·	-3	3	-8	0	1	-7
CC(C)c1onc(C(=O)NC(C)c2ccccc2)c1[N+](=O)[O-] (stereo unspecified)	-2	i	-6	8	10	-1	-2	·
O=C(CSc1nc(-c2ccco2)cc(C(F)(F)F)n1)Nc1ccc(C(=O)N2CCCCC2)cc1	0	i	-9	25	0	3	-20	10
COc1ccccc1-c1csc(C(NC(C)=O)c2ccccc2)n1 (stereo unspecified)	·	·	·	29	·	0	1	-17
COC(=O)c1cc(C(=O)OCC(=O)NC(=O)c2ccccc2)cc([N+](=O)[O-])c1	-6	i	·	-4	·	2	2	1
O=C(CCNC(=O)Cn1ccc2ccccc2c1=O)NCCc1ccc(Cl)cc1	-15	i	0	10	3	1	2	-11
CN(C)C(CNC(=O)CNC(=O)Cc1cccc2ccccc12)c1ccccc1 (stereo unspecified)	-13	i	76	0	5	1	4	-19	eIF4H inh retest=-4;PABP FP inh retest=3
O=C(c1ccccc1)N1CCN(C(=O)c2ccc(OC(F)(F)F)cc2)CC1	-13	i	4	·	5	-4	-2	2
CCN(C(=O)COC(=O)c1cc(S(=O)(=O)Nc2c(C)n(C)n(-c3ccccc3)c2=O)ccc1Cl)C1CCCCC1	-16	i	-4	-7	-6	1	-4	-2
CC(=O)N(CC1CCCO1)c1nnc(-c2cnccn2)s1 (stereo unspecified)	-8	i	-6	-76	-3	1	4	-4
CCN(CC)c1nc(OC)nc(-n2nnc(C(C)=O)c2C)n1	-1	i	2	·	-2	3	1	-3
COCCNC(=O)Cn1c(=O)n(Cc2ccc(C(=O)NCc3ccco3)cc2)c(=O)c2ccccc21	-6	i	-5	-68	5	1	3	-10
NS(=O)(=O)c1ccc(CCNC(=O)CCCC2=NS(=O)(=O)c3ccccc3N2)cc1	-13	i	-8	-47	-11	-3	-1	·
CCOc1ccc(-n2nnnc2SCC(=O)Nc2cccc(O)c2)cc1	0	i	4	7	-4	4	-6	-15
CCC[C@@H](CN1CCC[C@H]1CN1C(N)=NC[C@H]1C(C)C)N1C[C@@H]([C@H](C)CC)N(CCCC2CCCC2)C1=N	·	·	·	-22	·	4	6	2
COc1ccc2c(c1OC)C(=O)OC2Nc1nc(-c2ccc([N+](=O)[O-])cc2)cs1 (stereo unspecified)	-3	·	-2	-20	-4	14	-2	·
O=C(Nc1cnn(Cc2ccccc2)c1)NC12CC3CC(CC(C3)C1)C2	-15	i	-8	36	-1	5	0	-5
Cc1ccc(C)c(/C(O)=C2\C(=O)C(=O)N(Cc3cccnc3)C2c2cccnc2)c1 (stereo unspecified)	-3	i	-6	24	4	-2	3	-12
Cc1cc(C)c(S(=O)(=O)NCC(=O)NCc2cc(=O)n(C)c(=O)n2C)c(C)c1	-8	i	-7	-7	-5	-2	5	-14
NC(=O)CC(NC(=O)Cc1cccc2ccccc12)c1ccc(NC2CCCC2)c([N+](=O)[O-])c1 (stereo unspecified)	·	·	·	-4	·	-1	4	-14
O=S(=O)(c1cccs1)N1CN(CC2CCCO2)c2nc3ccccc3nc21 (stereo unspecified)	-10	i	3	·	10	-3	4	-5
COc1ccc(-n2c(COc3ccccc3)nnc2SCc2ccc(C#N)cc2)cc1	-6	i	-4	18	9	-1	-5	7
COc1ccc2[nH]c(=O)c(CN(Cc3cccs3)S(=O)(=O)c3c(C)ccc4nsnc34)cc2c1	47	i	-5	?	7	-35	-29	10
Cc1nnc(C)n1/N=C/c1ccccn1	12	i	4	·	13	0	3	·
CCOCCn1cnc2sc(C(=O)Nc3nc(C)c(C(=O)OCC)s3)c(C)c2c1=O	-8	i	-12	·	4	·	·	·
COc1cc2c(cc1OC)CN(C(=O)CSc1nnc3scc(-c4ccccc4)n13)CC2	-4	i	-11	16	-7	0	1	-8
Cc1c(NC(=O)c2ccc([N+](=O)[O-])o2)cccc1-c1nc2ncccc2o1	?	i	3	-180	2	-7	-9	-12
CC(C)COc1ccc(-c2nn(-c3ccccc3)cc2C(=O)Nc2nccs2)cc1	27	i	-14	72*	0	-9	-9	-8
COc1cc(C(=O)N2CCC(n3c(C)nc4cc(F)ccc43)CC2)cc(OC)c1OC	4	i	2	-9	6	2	-4	-18
COc1cccc(NC(=O)C2(C)CCN2C(=O)CC2CC2)c1 (stereo unspecified)	·	·	·	-7	·	2	5	2
O=C(Nc1cccc(C(F)(F)F)c1)c1cccnc1N1CCCC1	-7	i	18	·	5	6	2	7
CCN(Cc1ccccc1)C(=O)c1ccc(NC(=O)c2ccc(OC)cc2)cc1	-3	i	-5	21	-4	3	-7	4
CCOc1ccc(CC(=O)Nc2c(C(N)=O)oc3ccccc23)cc1OCC	-14	i	-5	·	-9	1	1	-17

Molecules above with a cyano group (two):
SMILES	CSC inhib	Rce1 inh	eIF4H inh	HIV Env fusion	PABP FP inh	MT1-MMP act inh	MT1-MMP act inh RFP	Yeast UUG start	others
CS(=O)(=O)c1nc(-c2ccccc2)cc(-c2ccccc2)c1C#N	2	i	5	·	-2	-27	-21	-13
COc1ccc(-n2c(COc3ccccc3)nnc2SCc2ccc(C#N)cc2)cc1	-6	i	-4	18	9	-1	-5	7

(next part)
SMILES	CSC inhib	Rce1 inh	eIF4H inh	HIV Env fusion	PABP FP inh	MT1-MMP act inh	MT1-MMP act inh RFP	Yeast UUG start	others
CC(=O)c1sc2nc(CSc3nncn3C)[nH]c(=O)c2c1C	11	i	9	-16	-1	-7	5	·
COc1cccc(NC(=O)CSc2nc3c(sc4ccccc43)c(=O)n2CCCN2CCCC2)c1	7	i	-12	-16	-20	3	2	-15
Cc1nc(Cl)c(C(=O)NC(=O)NCc2ccccc2)c(C)c1Cl	8	i	1	4	-10	5	2	-8
CCn1c(=O)c(C(=O)NCc2ccccn2)c(O)c2ccccc21	-30	·	1	·	10	3	8	-2
CC1=C(OC(=O)c2ccccc2)C(C)(C)C(c2ccccc2)OC1=O (stereo unspecified)	-7	i	-7	·	3	2	1	-7
CC(=O)c1ccc(NC(=S)NC2CCCC(C)C2C)cc1 (stereo unspecified)	·	i	-2	-6	18	1	-2	·
CC(Sc1nc(-c2ccc(F)cc2)cs1)C(=O)N1c2ccccc2CC1C (stereo unspecified)	·	i	-5	12	-14	-5	-11	·
O=C(CO)N/N=C/c1c2ccccc2cc2ccccc12	-5	i	-2	-8	16	-2	1	·
COc1cccc(-c2cc(C(=O)NCc3ccco3)no2)c1	5	i	6	-146	-7	3	1	-11
COc1ccc(NS(=O)(=O)c2ccc(N3CCN(CCO)CC3)c([N+](=O)[O-])c2)cc1	1	i	-9	-11	0	0	-19	16
COc1ccc(OC)c(Cc2nnc(CCC(=O)NC3CCCCC3)o2)c1	4	i	-5	-10	-12	-7	7	·
O=C(Nc1ccc(F)cc1)N1CCN2C(=O)c3ccccc3C12c1ccccc1 (stereo unspecified)	-2	i	-1	·	3	-2	-3	5
CCOC(=O)C1(CCCc2ccccc2)CCN(C(=O)CCCn2cncn2)CC1	-9	i	-4	16	-3	-4	-5	·
CCOC(=O)C1=CC[C@@H](c2ccccc2)N(S(=O)(=O)c2ccc(C)cc2)[C@H]1C	·	·	·	-6	·	-3	-8	-12
COc1ccccc1C(C)NC(=O)CCNC(=O)c1ccc(Cl)cc1 (stereo unspecified)	4	·	·	6	·	-1	-1	9
Cc1ccc(OC(=O)c2cccc(C(=O)Oc3ccc(C)cn3)n2)nc1	-7	i	1	·	3	·	·	·
CC1(C)CC(=O)C2=C(C1)Nc1ccccc1N(C(=O)C1CC1)C2c1ccco1 (stereo unspecified)	-3	i	18	-5	15	0	-1	-5
C=C(C)CSc1[nH]c(=O)cc(C)c1C#N	-14	i	-8	-6	-12	0	3	9
Cc1cc(C)c(NC(=O)CSc2nc3ccc(N4C(=O)c5ccccc5C4=O)cc3s2)c(C)c1	-7	i	-10	5	-6	3	0	-11
O=C(N/N=C\c1ccc(F)cc1)c1cc(OCC(F)(F)F)ccc1OCC(F)(F)F	0	i	-11	-139	-10	-1	-3	-20
Cc1ccc(NC(=O)c2cc(N3C(=O)C=CC3=O)ccc2N2CCOCC2)cc1Cl	74	i	-5	-3	4	1	5	·
O=C(CCSc1ccccc1)NCCN1CCOCC1	0	i	-10	-39	5	-2	1	0

High-throughput results (PubChem)
